Bioassay records as filed in PubChem.
TRPV1 PAM: enhances activation of the human vanilloid receptor TRPV1; 320,000 tested, 0.02% active; TRPV1-expressing cells, Fluo-8 calcium influx, capsaicin EC20 potentiation; host cell line not named in the record; control for the full effect not named in the record; Q8NER1; potentiation, % at 8.33 µM; active means potentiation above 80%; inconclusive means 30% to 80%; inactive means below 30%; further: 0% is about no effect
Target sequence (Q8NER1 whole entry, looked up): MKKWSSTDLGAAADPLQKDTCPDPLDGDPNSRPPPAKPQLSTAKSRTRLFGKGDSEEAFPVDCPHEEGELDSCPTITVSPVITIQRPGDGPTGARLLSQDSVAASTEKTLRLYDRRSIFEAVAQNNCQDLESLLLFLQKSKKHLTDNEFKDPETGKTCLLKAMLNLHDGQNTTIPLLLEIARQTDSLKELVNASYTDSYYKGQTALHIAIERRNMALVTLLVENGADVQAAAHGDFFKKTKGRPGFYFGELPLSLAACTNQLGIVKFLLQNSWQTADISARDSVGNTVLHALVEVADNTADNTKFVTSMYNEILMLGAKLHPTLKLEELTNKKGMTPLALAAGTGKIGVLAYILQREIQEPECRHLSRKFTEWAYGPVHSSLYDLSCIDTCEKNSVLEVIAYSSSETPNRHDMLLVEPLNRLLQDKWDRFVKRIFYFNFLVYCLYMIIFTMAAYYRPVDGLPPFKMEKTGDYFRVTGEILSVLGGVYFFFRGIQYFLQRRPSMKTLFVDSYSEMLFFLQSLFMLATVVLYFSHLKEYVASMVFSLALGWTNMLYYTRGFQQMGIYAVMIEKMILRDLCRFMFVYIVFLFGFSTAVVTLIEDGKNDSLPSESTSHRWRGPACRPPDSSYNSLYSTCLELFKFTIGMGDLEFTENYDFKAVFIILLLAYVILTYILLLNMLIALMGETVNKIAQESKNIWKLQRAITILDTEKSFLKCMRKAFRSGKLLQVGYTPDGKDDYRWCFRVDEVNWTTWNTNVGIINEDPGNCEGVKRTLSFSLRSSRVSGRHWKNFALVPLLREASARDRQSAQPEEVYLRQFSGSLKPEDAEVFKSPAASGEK
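Fluo-8 calcium influx in TRPV1-expressing cells, kinetic read (ex 480/em 520 nm). Compound added and read 3 min for agonist activity, followed by capsaicin at EC20 final and 2 min further read for enhancement.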
Menin-MLL FL inh: displaces fluorescein MLL peptide from human menin. 290,000 tested, under 10 active. FP activity change, % at 61.4 µM. Fluorescence polarization, fluorescein-MLL peptide displacement from menin; inconclusive = falling polarisation curve, or a change in total fluorescence; inactive = total fluorescence flat and polarisation flat or rising; no compound was filed as active; the % refers to the polarisation; negative = inhibition;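 further: % of control where 0% means no effect; inhibitors lower the polarisation; unlabelled MLL peptide was the positive control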
ClpP mod: qHTS Assay for Activators of ClpP. ATP-dependent Clp protease proteolytic subunit (Bacillus subtilis (strain 168)), P80244. purified B. subtilis ClpP, FRET peptide cleavage, 20 min. Potency, µM (titrated, usually from 57.5 µM), inactives show at the highest dose activity change, negative = active. 340,000 tested, 1.9% active; active = well fitted falling curve with a large enough effect; inconclusive = small, poorly fitted or top-dose-only effect; inactive = no such curve, though single readings can be large or run the other way; further: potency means the concentration at half of the fitted maximal effect; the source files actives as falling curves though it sought activators and does not explain the sign; nearly all actives have a fitted effect of over 65% in size; many hits overshoot -100%
Target sequence (P80244 whole entry, looked up): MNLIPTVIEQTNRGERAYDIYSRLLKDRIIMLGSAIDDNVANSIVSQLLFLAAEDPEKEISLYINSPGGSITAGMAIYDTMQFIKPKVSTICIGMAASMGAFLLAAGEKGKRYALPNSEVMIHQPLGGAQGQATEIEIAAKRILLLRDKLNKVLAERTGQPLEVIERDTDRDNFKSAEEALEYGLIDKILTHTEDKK
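FRET quenching reversal measured ClpP activation: 10 microg/mL B. subtilis ClpP at pH 8 with the FRET-FV decapeptide, read at 430 nm after 320 nm excitation. The 20-min minus 0-min signal was scaled between DMSO/no-enzyme wells and ADEP (5.8 microM final).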
CtBP-E1A inh: CtBP/E1A binding inhibition | AlphaScreen GST-E1A/His-CtBP binding, 1536-well; active compounds read low; control for the full effect not named in the record | activity change, % (test concentration not listed) | 340,000 tested, 0.49% active | AID 651724; in the data active means activity change below about -65%; inconclusive means about -30% to -65%; inactive means above about -30%; further: on the % scale 0 is the no-effect control and ±100 the full control effect
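Steps: dispense buffer (Tris pH 8.0, NaCl 300 mM, TCEP 1 mM, BSA, Tween 20); add 5X protein mix (GST-E1A, His-CtBP, 125 nM each); pin 23 nL compound; 2 h at 37 °C, dark; add 5X beads (50 ug/mL); 1 h; read.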
gsp antagonist: antagonizes gsp, the McCune-Albright syndrome mutation. gsp-mutant cells, cAMP HTRF, 30 min; control for the full effect not named in the record. Potency, µM (highest dose often 76.9 µM), for inactives: top-dose activity change, negative = inhibition, usual class: inhibitors. 340,000 tested, 0.4% active. AID 624288; active = falling curve of any shape with a large fitted effect; inconclusive = falling curve, mostly with a smaller effect; inactive = flat or rising curve; cell line not stated here;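 further: intracellular cAMP measured with PDE inhibitor Ro 20-1724 present during compound exposure; potency means the concentration at half of the fitted maximal effect; on the % scale 0 is the no-effect control and ±100 the full control effect; nearly all actives have a fitted effect of over 65% in size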
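G418-selected cells were plated in DMEM/10% FBS for 16-24 h at 37C, then treated with compounds plus the PDE inhibitor […] (300 uM solution added) for 30 min at 37C. Intracellular cAMP was measured by HTRF after 30 min lysis at room temperature.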
gsp agonist: activates gsp, the McCune-Albright syndrome mutation | gsp mutant cells, cAMP HTRF, 30 min; control for the full effect not named in the record | Potency, µM (series often up to 76.9 µM), for inactives: at the top dose activation (cAMP increase), actives largely listed as activators | 340,000 tested, 0.13% active | AID 624287; active = well fitted activation curve with a large enough effect; inconclusive = small, poorly fitted or top-dose-only effect, or another doubt; inactive = no such curve, though single readings can be large or run the other way; cell line not stated here;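 further: phosphodiesterase inhibitor Ro 20-1724 added with compounds to block cAMP breakdown; potency means the concentration at half of the fitted maximal effect; nearly all actives have a fitted effect of over 60% in size; about a fifth of the inactives were tested at one dose only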
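Cells stably selected in G418 were plated at 2000/well, grown 16-24 hr, then given compounds in DMSO with the PDE inhibitor […] (300 uM solution added) for 30 min at 37C; cAMP was read by HTRF.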
Sfp PPTase inh: blocks B. subtilis Sfp PPTase activity; 310,000 tested, 3.5% active; Biochemical Sfp PPTase activity, qHTS; AID 1490; Potency, µM, inactives show max response, negative = inhibition, hits mostly inhibitors; active means well fitted inhibition curve with a large enough effect; inconclusive means small, poorly fitted or top-dose-only effect, or another doubt; inactive means no such curve, though single readings can be large or run the other way;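 further: the enzyme is Sfp with the accession as filed and its product quenches rhodamine fluorescence; potency means the concentration at half of the fitted maximal effect; 0% = enzyme reaction without inhibitor and -100% = no enzyme wells; top concentration of the series not given in the record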
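Buffer: 50 mM Hepes-Na pH 7.6, 10 mM MgCl2, 0.01% Nonidet P-40, 0.01% BSA. Enzyme 15 nM, pre-exposed to compound 15 min; substrates then added and fluorescence change tracked over 30 min.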
An asterisk follows results filed as active; ? = inconclusive; . = not tested or not shown; [ ] = another dose, or the depositor's remark.

SMILES	TRPV1 PAM	Menin-MLL FL inh	ClpP mod	CtBP-E1A inh	gsp antagonist	gsp agonist	Sfp PPTase inh
NC(=O)[C@@H]1CCCN1Cc1nc(-c2ccccc2)no1	-0.5	-2.0	.	6.0	-0.8%	-60.0%[inhibitor]	-0.4%
CC1CCCN(c2ccc(N)cc2C(N)=O)C1 (stereo not given)	3.2	2.4	.	-12.5	10.5%	0.3%[15.4 µM]	-24.1%
COc1cccc(-c2cc3nc4c(c(NCC(C)(C)CN(C)C)n3n2)CCCC4)c1	4.9	-0.9	-1.0%	-2.7	-42.3%	-3.5%[15.4 µM]	0.5%
Cc1noc(C)c1CSc1ccc2ccccc2n1	?	3.1	-1.5%	25.5	?	-4.2%	79.4µM*
CCC(C)(CCNC(=O)Cc1ccccc1)c1ccccc1OC (stereo not given)	-5.9	1.1	-0.6%	2.5	-12.1%	?	15.5%
COC(=O)/C(N=Nc1cccc(C(F)(F)F)c1)=C(\C)O	-18.8	4.3	-0.6%	-1.5	9.3%	3.2%	22.4%
COc1ccccc1/C=C/C1=NC(=C\C=C/c2ccccc2)/C(=O)O1	4.7	4.9	-3.5%	0.0	-1.3%	-4.9%	-0.2%
CCn1c(C(=O)NC(C)c2ccc3c(c2)OCCO3)cc2sccc21 (stereo not given)	0.4	5.7	-1.2%	-11.9	-10.9%	-17.4%	-8.4%
O=C(Nc1ccc2c(c1)OCCO2)Nc1ccc2c(c1)OCO2	-7.5	1.5	.	-7.0	0.1%	11.7%	0.2%
O=C(c1ccco1)N1CCN(CC(=O)N2c3ccccc3CCc3ccccc32)CC1	7.7	-1.2	0.5%	6.1	-5.5%	-4.6%	?
N#C/C(=C/c1ccc(O)c([N+](=O)[O-])c1)C(=O)Nc1ccccc1	-1.9	2.6	.	-27.2	?	-21.3%	-26.9%
C=CCNCCCOc1ccc(Cl)cc1Br	1.3	11.1	0.6%	6.3	-0.4%	18.9%	-7.2%
N#CC1(NC(=O)COC(=O)C2=COCCO2)CCCCC1	2.1	.	-0.1%	.	14.1%	?	.
Cc1ccc2ccccc2c1CSc1nc(N)nc2c1ncn2CC(C)C	.	.	-7.0%	-1.6	-13.3%	27.5%	.
O=C(O)Cn1c(SCc2cccc3ccccc23)nc2ccccc21	7.1	6.0	0.5%	-1.8	-11.3%	?	20.7%
O=C1CN(C(=O)CN2CCN(S(=O)(=O)c3ccccc3F)CC2)c2ccccc2N1	.	.	2.0%	0.0	.	-132.0%[inhibitor]	.
COc1ccc(N=C2SC(C(N)=O)CC(=O)N2Cc2ccc3c(c2)OCO3)cc1 (stereo not given)	1.5	-2.7	-3.5%	.	3.5%	17.1%	11.7%
COc1cccc(-n2cc3c(c2-c2ccccc2)c(=O)n(C)c(=O)n3C)c1	27.2	10.3	?	-1.7	-9.4%	-3.1%	?
COc1ccc(S(=O)(=O)N2CCN(C(=O)CCNC(=O)c3ccccc3Cl)CC2)cc1	-12.2	.	-2.7%	-4.6	-10.5%	11.6%	.
CC(NC(=O)C(Cc1ccccc1)n1cccc1)c1ccccc1 (stereo not given)	-12.2	?	.	-1.3	-4.1%	-2.7%[15.4 µM]	21.4%
COC(CNC(=O)Cc1c(C)nc2c(-c3ccccc3)c(C)nn2c1C)OC	-2.9	-4.8	0.7%	6.5	7.4%	-30.2%[inhibitor]	-0.2%
O=C(Nc1cccc(F)c1)NC1(C(=O)N2CCC(O)CC2)CCCCC1	-9.7	-2.0	0.3%	21.2	2.6%	-8.6%[15.4 µM]	3.4%
C=CCSc1nnc(NC(=O)c2cccc(S(=O)(=O)N3CCOCC3)c2)s1	-18.7	-1.4	0.5%	0.6	-12.4%	-4.1%	?
CN1CCC(=O)N([C@H](CSc2ccc(Br)cc2)Cc2ccccc2)CC1	-17.3	-1.3	-5.4%	-24.1	4.2%	.	1.9%
CC(=O)c1c(C)[nH]c(C)c1C(C)=O	8.3	5.2	-1.2%	6.5	4.3%	-28.7%	-12.2%
N#CCc1nn(Cc2ccc(F)cc2)c(=O)c2ccccc12	-0.2	1.1	-1.4%	-8.2	7.9%	26.7%	5.2%
COCCN(Cc1cc2cc3c(cc2nc1Cl)OCO3)C(=O)c1ccc(C)cc1	18.5	0.6	-20.7%	.	-18.9%	-16.8%	26.7%
CN(C)c1nc(N)c2ncc(=S)[nH]c2n1	4.2	-20.7	.	1.2	-5.1%	-5.8%[15.4 µM]	50.1µM*
COC(=O)c1cc(-n2cccc2)ccc1N1CCOCC1	24.3	5.2	-1.4%	-1.6	0.4%	3.1%[15.4 µM]	8.5%
CCOC(=O)Nc1ccc2c(c1)N(C(=O)CCN(CC)CC)c1ccccc1S2=O (stereo not given)	27.1	2.3	2.6%	-3.1	28.7%	-6.5%[15.4 µM]	6.2%
CCN(CC)C(=O)C1=C(C)N(Cc2ccc(F)cc2)C(=O)C(CC(=O)NCCCCc2ccccc2)C1 (stereo not given)	.	.	1.3%	3.1	.	22.2%	.
COc1ccc(CN2CCC[C@]3(N[C@H](c4ccc(OC)cc4)[C@@H]4C(=O)N(C)C(=O)[C@@H]43)C2=O)cc1	.	.	0.7%	4.8	.	?	.
COc1ccc(C2NC(=O)NC(C)=C2C(=O)OC2CCCCC2)cc1 (stereo not given)	.	.	-1.8%	3.6	.	?	.
COc1cccc(CNc2ccc([N+](=O)[O-])cc2C)c1	-4.8	-2.4	5.1%	-1.7	-24.6%	0.8%[15.4 µM]	-9.5%
CCOC(=O)C1(C(F)(F)F)N=C(c2cccnc2)OC(N2CCCCC2)=N1 (stereo not given)	-15.4	1.9	3.0%	16.1	-1.9%	-27.5%	1.4%
Cc1ccccc1OCc1nnc2c3cnn(C)c3ncn12	22.8	3.3	-0.6%	12.0	7.3%	?	-2.4%
COc1ccccc1N1CCN(C(=S)Nc2ccc(S(=O)(=O)N3CCOCC3)cc2)CC1	3.0	-5.2	.	12.5	31.6µM*	3.9%[15.4 µM]	13.7%
Cc1ccc(CNS(=O)(=O)c2ccc3oc(C(=O)O)c(C)c3c2)cc1	-16.8	-5.3	-1.4%	-4.6	9.0%	7.3%	8.4%
O=C(c1ccc(Nc2cccc(C(F)(F)F)c2)nc1)N1CCCC1	-8.9	5.6	-23.3%	-24.7	?	-4.6%	11.9%
COc1ccc(NC(=O)CN(C)C(=O)Cc2ccc3c(c2)CCC3)cc1	8.2	.	-0.8%	-1.4	11.8%	?	-19.3%

A draw from above in order of length of the SMILES, highest first.
SMILES	TRPV1 PAM	Menin-MLL FL inh	ClpP mod	CtBP-E1A inh	gsp antagonist	gsp agonist	Sfp PPTase inh
CCOC(=O)Nc1ccc2c(c1)N(C(=O)CCN(CC)CC)c1ccccc1S2=O (stereo not given)	27.1	2.3	2.6%	-3.1	28.7%	-6.5%[15.4 µM]	6.2%
COc1ccc(C2NC(=O)NC(C)=C2C(=O)OC2CCCCC2)cc1 (stereo not given)	.	.	-1.8%	3.6	.	?	.
N#CCc1nn(Cc2ccc(F)cc2)c(=O)c2ccccc12	-0.2	1.1	-1.4%	-8.2	7.9%	26.7%	5.2%

(list continues)
SMILES	TRPV1 PAM	Menin-MLL FL inh	ClpP mod	CtBP-E1A inh	gsp antagonist	gsp agonist	Sfp PPTase inh
CC(C)Oc1cc2ccccc2cc1CNC[C@H]1O[C@@H](n2cnc3c(N)ncnc32)[C@H](O)[C@@H]1O	.	.	-1.5%	4.3	11.7%	.	.
C=CCCC(=O)N1CCC(Oc2cccc(C(=O)NCc3ccccn3)c2)CC1	18.2	.	-1.9%	0.2	0.3%	-55.4%[inhibitor]	9.0%
O=C1CN(C(=O)c2ccco2)c2ccccc2N1	3.5	2.3	-1.7%	8.2	12.0%	1.9%	4.2%
N#CCC(=O)N/N=C\c1cc(Br)ccc1OC/C=C/c1ccccc1	2.1	.	-4.3%	-3.9	10.8%	-73.8%[inhibitor]	-0.7%
N#CCCN(C(=O)COC(=O)/C=C/c1cccs1)c1ccccc1	.	.	.	-1.9	-3.6%	-38.8%	.
C=CCOc1ccccc1/C=N/NC(=O)Cc1ccccc1	27.8	2.1	-2.7%	.	-1.1%	-82.6%[inhibitor]	?
O=C(Cn1nnc(-c2ccccc2)n1)NC(=O)NC1CCCC1	1.4	.	-0.2%	6.1	9.9%	-13.2%	.
COC(=O)c1sc(NC(=O)CSc2nc3cccnc3n2C)nc1C	7.1	.	.	4.6	1.6%	-6.5%	10.6%
CNc1nc2ccccc2n1/N=C/c1cccc(OC)c1OC	-29.6	0.7	0.2%	-8.6	-7.7%	-5.1%	-10.5%
O=C(N=c1ccn(-c2nc3ccccc3nc2NS(=O)(=O)c2ccccc2)cc1)c1cccs1	4.7	?	.	2.3	?	0.4%[15.4 µM]	-1.3%
COc1ccc(CNC(=O)CN(C)S(=O)(=O)c2ccc3c(c2)OCCO3)cc1OC	-23.9	.	-0.6%	-0.3	6.3%	1.1%	.
Cc1ccc(C(=O)O/N=C2\CCSc3ccc(C)cc32)cc1	8.6	0.7	?	14.2	-17.6%	31.7%	-11.5%
CCCCn1c(N)c(N(CCOC)C(=O)CN2C(=O)c3ccccc3C2=O)c(=O)[nH]c1=O	-3.2	.	-6.2%	2.8	1.9%	?	6.0%
CCCc1cc(C(=O)Nc2ccc(OC)cc2[N+](=O)[O-])cs1	29.5	1.2	-1.8%	?	2.8%	26.1%	0.2%
CC(=O)c1cccc(OCC(=O)N(CCC2=CCCCC2)c2c(N)n(Cc3ccccc3)c(=O)[nH]c2=O)c1	.	.	-0.7%	2.1	-3.2%	3.6%	.
CC(C)CN(C(=O)COc1ccc([N+](=O)[O-])cc1)c1c(N)n(CC(C)C)c(=O)[nH]c1=O	-0.8	.	0.7%	16.3	-33.0%	-19.9%	.

Four entries out of the list above, arranged by the number in gsp agonist, highest first:
| canonical_smiles | gsp agonist |
| --- | --- |
| CCCc1cc(C(=O)Nc2ccc(OC)cc2[N+](=O)[O-])cs1 | 26.1% |
| O=C1CN(C(=O)c2ccco2)c2ccccc2N1 | 1.9% |
| COC(=O)c1sc(NC(=O)CSc2nc3cccnc3n2C)nc1C | -6.5% |
| CC(C)CN(C(=O)COc1ccc([N+](=O)[O-])cc1)c1c(N)n(CC(C)C)c(=O)[nH]c1=O | -19.9% |
